# High-throughput results (PubChem BioAssay)
# Bfl-1 A1 inh: inhibitors of the anti-apoptotic protein A1, read as caspase activation. caspase activation, % (test concentration not listed). MEF A1-2A-BIM cells, Caspase-Glo 3/7 luminescence, 3 h; percent of clofoctol response, vehicle zero. 0.066% of 330,000 active. AID 2462;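 active = over half of replicate activation scores above 10%, or exactly half above 10 with the replicate mean above 10; inconclusive = replicate mean below 10 yet half the replicates above 10; inactive = over half of replicates below 10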;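 note: wells of about 30 µL received 50 nL stock; many hits fall short of the cut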
# UCH37 inh: human UCH37 deubiquitinating enzyme inhibition; 0.33% of 330,000 active; Q9Y5K5; inhibition, % (no concentration beside the values); purified proteasome/UCH37, Ub-AMC cleavage fluorescence; AID 588478;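 active = mean of two replicates above 20%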;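 note: 0% = compound-free wells with enzyme and 100% = wells lacking proteasome; stock transfer was 100 nL into about 20 µL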
# Target sequence (Q9Y5K5 whole entry, looked up): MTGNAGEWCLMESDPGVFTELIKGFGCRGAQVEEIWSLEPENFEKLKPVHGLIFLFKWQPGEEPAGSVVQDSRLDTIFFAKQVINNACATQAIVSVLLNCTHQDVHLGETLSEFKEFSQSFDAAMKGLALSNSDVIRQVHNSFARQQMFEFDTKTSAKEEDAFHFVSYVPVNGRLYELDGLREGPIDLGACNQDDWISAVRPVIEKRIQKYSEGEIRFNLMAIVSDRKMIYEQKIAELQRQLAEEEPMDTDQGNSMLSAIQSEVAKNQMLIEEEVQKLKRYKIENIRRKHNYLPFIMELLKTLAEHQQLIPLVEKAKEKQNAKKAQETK
#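 System: Proteasome-associated human UCH37 deubiquitinase; Input: 0.15 nM proteasome in added enzyme buffer; Also added: Ub-AMC substrate from 1 µM stock; Incubation: 30 min compound-proteasome preincubation then 25 min substrate reaction, room temperature; Detection: fluorescence, ex 355 nm, em 460 nm; Read-out: % inhibition of Ub-AMC cleavage fluorescence; Benchmarks: no-proteasome and no-compound wells.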
# MLL AF4-AF9 inh: inhibitors of human MLL-AF4/AF9 interaction | AlphaScreen, biotin-AF4 peptide binding to FLAG-AF9 | P42568 | inhibition, % at 10 µM | 0.47% of 350,000 active;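 active = every replicate reaching a set inhibition limit, whatever the replicate mean, cut at about 25% in these data; inconclusive = mean inhibition reaches that limit but some replicates miss it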;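 note: 0% = plate neutral control median and 100% = total signal loss; the record names both 10 and 1 µM as test concentration; the first replicate is given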
# Target sequence (P42568 whole entry, looked up): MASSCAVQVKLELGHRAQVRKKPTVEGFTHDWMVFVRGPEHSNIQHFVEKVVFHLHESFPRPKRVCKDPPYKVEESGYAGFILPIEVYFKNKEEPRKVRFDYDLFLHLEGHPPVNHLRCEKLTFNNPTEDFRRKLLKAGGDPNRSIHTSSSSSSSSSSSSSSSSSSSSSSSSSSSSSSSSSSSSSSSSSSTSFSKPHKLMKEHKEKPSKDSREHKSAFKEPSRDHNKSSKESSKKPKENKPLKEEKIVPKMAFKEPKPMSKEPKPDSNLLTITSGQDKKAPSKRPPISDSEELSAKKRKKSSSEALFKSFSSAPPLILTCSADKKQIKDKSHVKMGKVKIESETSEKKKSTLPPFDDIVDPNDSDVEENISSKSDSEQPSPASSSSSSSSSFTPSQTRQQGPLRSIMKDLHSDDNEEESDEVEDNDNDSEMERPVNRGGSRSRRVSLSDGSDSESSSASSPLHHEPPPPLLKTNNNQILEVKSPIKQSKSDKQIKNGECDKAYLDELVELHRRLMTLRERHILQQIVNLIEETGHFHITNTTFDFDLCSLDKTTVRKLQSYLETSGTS
# T cruzi repl: T. cruzi replication inhibition; inhibition, % (concentration not given with the values); 1.4% of 300,000 active; AID 1885; T. cruzi beta-gal in NIH3T3, luminescence, 90 h;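 active = mean inhibition across valid replicates above about 55%, limit read from the data; inconclusive = mean below that limit but half or more replicates reach it; inactive = mean below it, under half of replicates reach it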;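 note: signal also drops with host cell toxicity which is not excluded here; 0% = plate median of DMSO wells and 100% = zero luminescence signal; higher percent means less beta-gal luminescence so fewer parasites; stock transfer was 50 nL into about 50 µL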
# Ecoli growth: E. coli growth inhibition; Escherichia coli growth, OD600, 23 h; hits give low values; OD600 absorbance (concentration not given with the values); 0.21% of 330,000 active; AID 1053175;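 active = OD600 absorbance below the run mean of sample wells minus 3.6 SD, in any replicate, cut at about 0.56 in these data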;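 note: stock transfer was 300 nL into about 60 µL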
# Ecoli rRNA inh: inhibits bacterial ribosomal RNA function over humanized ribosomes | 1.6% of 350,000 active | AID 720706 | E. coli WT GFP vs humanized-ribosome RFP mutants, fluorescence, 24 h; hits give low values; DMSO median 0, no signal -100 | GFP signal change (wild-type ribosome), % (concentration not given with the values);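 active = significant combined selectivity score with lowered wild-type GFP, culture density cut under 30%, mutant RFP and density less affected; inactive = any of these conditions unmet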; note: one replicate is shown; some compounds called inactive have numbers as strong as hits
# FGF22 binding: binders of recombinant human FGF22 by thermal shift; SYPRO orange fluorescence; percent of sucrose octasulfate shift, DMSO zero; calls only at 9.99 µM; 1.5% of 340,000 active; AID 651658;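 active = melting point raised past a set limit in the mean and every replicate; inconclusive = no clear call; three in four hits are not shown here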
# Target sequence (Q9HCT0 whole entry, looked up): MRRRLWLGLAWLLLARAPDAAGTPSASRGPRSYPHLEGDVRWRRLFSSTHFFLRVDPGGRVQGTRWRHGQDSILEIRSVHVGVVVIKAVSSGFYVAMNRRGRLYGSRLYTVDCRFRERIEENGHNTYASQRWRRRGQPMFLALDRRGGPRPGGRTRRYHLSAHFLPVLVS
# Beta cell apopt: beta cell apoptosis inhibition | 0.8% of 300,000 active | protection from apoptosis, % (no concentration beside the values) | INS-1E cytokine-induced death, ATP luminescence, 48 h; percent of positive-control rescue, neutral wells zero | AID 435005;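 active = all replicates at 75% or more, or half of them and the mean; inconclusive = half reach 75% but not the mean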;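 note: 0% = cytokine-treated negative control wells and 100% = positive control rescue; higher means more ATP so stronger rescue from cytokine killing; wells of about 40 µL received 100 nL stock; the first replicate is given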
# Ecoli rRNA inh OD600: second read-out of Ecoli rRNA inh, no call of its own (marks repeat the call); OD600 change, %; measured here: OD600 growth;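 optical density of the mix in the first replicate; 0 = DMSO median and -100 = no signal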
# Ecoli rRNA inh RFP: further read-out of Ecoli rRNA inh, marked with its call; RFP signal change, %; measured here: RFP humanized mutant strains;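 first replicate; 0 = DMSO median and -100 = no signal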
# Active calls of the source: *; i = inactive; ? = inconclusive; nt = no result given.
SMILES,Bfl-1 A1 inh,UCH37 inh,MLL AF4-AF9 inh,T cruzi repl,Ecoli growth,Ecoli rRNA inh,Ecoli rRNA inh OD600,Ecoli rRNA inh RFP,FGF22 binding,Beta cell apopt
CCN(CC)C(=O)c1nc[nH]c1C(=O)N1CCc2ccccc2C1,2.3,0.3,-3.6,nt,0.65,5,11,-11,i,-8
CCC1S/C(=N/N=C/c2ccco2)N(Cc2ccccc2C)C1=O (centres undefined),0.7,nt,11,22,nt,-9,2,-0.9,i,11
CC(C)=CCCC(C)CN1CCC(n2nccc2NC(=O)c2ccc3c(c2)OCO3)CC1 (centres undefined),-0.3,nt,2.9,57*,nt,1,-2,-0.4,i,0
CCC1=C(OC(=O)N(CC)CC)N2C(=O)OC(=NCC3CC3)[C@]2(Cc2ccccc2)[C@H]2C1=CC[C@H]1C(=O)N(CC)C(=O)[C@H]12,0.0,-0.4,6.5,35,nt,9,7,-5.6,i,-2
COc1ccc(-n2c(=S)[nH]c3ncccc3c2=O)cc1,0.2,1.6,8.4,0,0.72,10,3,-3.7,i,5
Cc1ccc(-c2nn(-c3ccccc3)cc2CNCc2ccccc2)cc1,2.9,4.3,0.4,62*,0.59,-48,-81,-12,i,-2
COc1ccc(NC(=O)NNC(=O)C(C)Oc2ccc(C(C)C)cc2)c(OC)c1 (centres undefined),1.0,6.0,2.0,-1,0.75,-5,-4,4.9,i,-6
COC(=O)c1ccccc1NC(=O)Cn1cnc2ccc(S(=O)(=O)N3CCC(C)CC3)cc2c1=O,-0.5,0.2,nt,13,0.73,nt,nt,nt,nt,5
O=C1Cc2cc(NS(=O)(=O)c3ccc([N+](=O)[O-])cc3)cc3c2N1CCC3,-0.5,2.8,-0.1,-2,0.68,6,1,-0.7,nt,4
O=C(O)CC(NCc1ccco1)C(=O)OCCc1ccccc1 (centres undefined),0.1,-0.9,nt,0,0.7,nt,nt,nt,nt,-3
CC(=O)NC1C(OCc2ccccc2)OC2COC(c3ccccc3)OC2C1OCC(=O)O (centres undefined),0.5,2.1,-1.2,-2,0.68,8,13,-1.4,i,nt
Nc1c(C(=O)c2ccccc2)oc2ccc(Br)cc12,-0.3,-9.7,nt,8,0.72,nt,nt,nt,nt,0
O=C(NCc1ccccc1)C1CC(=O)N(c2ccc(OCC(=O)N3CCOCC3)cc2)C1 (centres undefined),0.8,4.5,-1.9,-1,0.69,4,9,-1.8,i,-1
CCC(=O)N/N=c1/sc2ccccc2n1C,-0.1,nt,-5.1,7,nt,4,5,2.5,i,-9
CC(=O)c1ccc(NC(=O)CSC(C)C)cc1,-0.2,6.0,?,-13,0.72,5,0,-3.1,i,-3
COc1ccc(/C=N/NC(=O)C(C)N(c2ccc(OC)cc2)S(C)(=O)=O)cc1 (centres undefined),0.6,nt,2.2,-5,nt,9,14,2.3,i,-3
CCCCn1nnnc1SCC(=O)Nc1ccc(C)cc1,1.0,-2.0,nt,2,0.75,nt,nt,nt,nt,-3
Cn1nnnc1SCC(=O)Nc1cccc([N+](=O)[O-])c1,0.0,1.3,-0.7,-2,0.64,17,20,1.5,nt,-2
NC(=O)Cn1cc(/C=N\NS(=O)(=O)c2cccc([N+](=O)[O-])c2)c2ccccc21,0.8,nt,-1.7,-3,nt,15,14,0.8,i,-2
O=C(c1cc(COc2ccc(-n3cncn3)cc2)on1)N1CCCC1,0.1,0.7,-1.0,-4,0.67,6,9,0.3,i,0
CCCC(C)NC(=O)c1nc(-c2ccccc2)n(-c2ccccc2)n1 (centres undefined),-0.2,-1.2,nt,25,0.76,nt,nt,nt,nt,-1
O=C(O)C1Cc2ccccc2CN1C(=O)c1ccccc1 (centres undefined),-0.6,1.3,nt,-4,0.67,nt,nt,nt,nt,nt
O=C(CN1CCN(S(=O)(=O)c2ccccc2[N+](=O)[O-])CC1)Nc1ccc(N2CCOCC2)cc1,1.1,3.8,7.4,2,0.69,8,8,-2.5,i,6
Cn1ncc(Br)c1C(=O)Nc1ccc(F)cc1F,0.9,4.8,nt,-6,0.69,nt,nt,nt,nt,0
COc1ccc([C@H]2CC(=O)C=C(c3ccccc3C(F)(F)F)C2)cc1,3.3,-0.1,-2.9,nt,nt,-10,-29,-10,i,2

# The list goes on.
SMILES,Bfl-1 A1 inh,UCH37 inh,MLL AF4-AF9 inh,T cruzi repl,Ecoli growth,Ecoli rRNA inh,Ecoli rRNA inh OD600,Ecoli rRNA inh RFP,FGF22 binding,Beta cell apopt
CCOC(=O)c1ccc(NC(=O)CCc2nc(-c3ccccc3)no2)cc1,0.0,1.8,nt,10,0.69,nt,nt,nt,nt,-4
Cc1ccc(C(c2sc3nc(C)nn3c2O)N2CCN(c3ccc(F)cc3)CC2)cc1 (centres undefined),0.6,-0.3,nt,6,0.7,nt,nt,nt,nt,0
CNc1ccc([N+](=O)[O-])cc1C(=O)O,0.5,8.2,9.6,-13,0.69,5,-3,0.2,i,-9
O=c1[nH]c2ccc(S(=O)(=O)N3CCN(c4ccc(F)cc4)CC3)cc2o1,0.5,1.1,-4.8,2,0.72,-5,-3,-0.1,i,-5
COCCNC(=O)C1CCC(CNS(=O)(=O)c2ccc(F)cc2)CC1 (centres undefined),-0.3,5.3,1.0,2,0.68,11,7,0.4,i,-5
CC(C)(C)c1sc(N)nc1-c1ccccc1,-0.7,3.6,nt,-5,0.69,nt,nt,nt,nt,-6
CC(C)(C)OC(=O)N[C@@H](C(=O)OC(C)(C)C)c1ccc2c(c1)OCO2,-0.3,-0.2,-0.6,nt,nt,-1,-4,-7.9,i,0
Cc1ccc(C(C)C)c(OCC(=O)NN=C2CCCC(=O)C2)c1,0.2,2.8,-38,nt,0.71,-2,6,5.4,i,-6
Cc1ccc(CNC(=O)C2CCCN(S(=O)(=O)c3cccnc3)C2)cc1 (centres undefined),0.9,7.9,nt,2,0.67,nt,nt,nt,nt,4
CC(Sc1ccc(S(=O)(=O)N2CCCCCC2)cn1)C(N)=O (centres undefined),nt,5.0,-5.0,nt,0.68,1,-1,4.4,i,nt
CCOC(=O)c1c(C)c(C(=O)NCc2ccccn2)c(C)n1C,0.0,1.1,nt,-5,0.65,nt,nt,nt,nt,-5
CCOC(=O)C(NC(=O)CC)(Nc1sc(C)c(CC)c1C#N)C(F)(F)F (centres undefined),0.2,1.3,nt,-2,0.71,nt,nt,nt,nt,-3
COc1ccccc1N1CCN(S(=O)(=O)c2ccc3c(c2)n(C)c(=O)n3C)CC1,1.0,3.5,0.0,7,0.69,-19,-15,0.0,i,-5
CCCCN(CCCC)c1cc(C)nc(-c2ccccc2O)n1,1.2,-16,nt,13,0.72,nt,nt,nt,nt,6
CCN(C(=O)Cn1cnc2c(nc3n2CCCCC3)c1=O)c1cccc(Cl)c1,-0.7,1.9,-0.6,-5,0.72,5,5,2.4,i,1
O=C(c1ccco1)N1CCN(S(=O)(=O)c2ccc(Br)s2)CC1,0.0,3.0,nt,-5,0.7,nt,nt,nt,nt,-3
Cc1ccc(-n2nc3c(=O)n(CCCC(=O)N4CCCCC4)nc(C)c3c2C)cc1,-0.4,-0.8,-2.2,9,0.71,-3,0,3.5,i,-6
Cn1cnnc1SCC(=O)NC1CCCCC1,-0.5,6.5,-1.1,-10,0.69,10,12,2.6,i,2
COCCNCCOCCOc1cccc(OC)c1,0.0,4.5,nt,-1,0.7,nt,nt,nt,nt,3
O=C(CCNS(=O)(=O)c1cccs1)Nc1ccccc1F,0.3,1.9,nt,-6,0.72,nt,nt,nt,nt,1
CC1(C)O[C@@H]2C[C@H]3[C@@H]4CCC5=CC(=O)C=C[C@]5(C)[C@@]4(F)[C@@H](O)C[C@]3(C)[C@]2(C(=O)CO)O1,1.0,1.0,0.3,nt,nt,nt,nt,nt,i,6
CSCCC(NS(=O)(=O)c1ccccc1F)C(=O)N1CCCCCCC1 (centres undefined),0.6,1.6,-0.3,2,0.69,-5,-9,2.7,i,3
CC(C)(O)C#Cc1ccc(C(=O)NC2CCCCC2)s1,-1.3,-0.9,-3.7,0,0.63,6,11,2.4,i,-4
Cc1cc(=O)[nH]c(COc2ccccc2)n1,-1.9,-1.3,nt,-13,0.71,nt,nt,nt,nt,-2
COc1ccc(S(=O)(=O)NNC(=O)C2COc3ccccc3O2)cc1[N+](=O)[O-] (centres undefined),0.3,0.0,-0.7,17,0.62,12,5,6.0,i,-1

# The results go on:
SMILES,Bfl-1 A1 inh,UCH37 inh,MLL AF4-AF9 inh,T cruzi repl,Ecoli growth,Ecoli rRNA inh,Ecoli rRNA inh OD600,Ecoli rRNA inh RFP,FGF22 binding,Beta cell apopt
Cc1nnc(SC/C=C/c2ccccc2)n(N)c1=O,0.5,0.5,0.4,nt,0.68,10,8,-0.4,i,2
O=C(NCCCn1ccnc1)c1cc2c(ccc3ccccc32)o1,0.3,3.4,2.9,-11,0.73,-15,-5,-3.5,i,6
COc1cc(C)nc(N(Cc2ccccc2)S(=O)(=O)c2ccc(C)cc2)n1,-0.1,1.1,-1.9,17,0.71,3,6,-5.0,i,8
CC(C)C(=O)Nc1ccc2c(c1)nc(CCN1CCCCC1)n2C,-1.1,-1.1,-1.7,-6,0.66,5,17,1.7,i,-2
CCOC(=O)N1CCN(CC(=O)Nc2sc(CC)cc2C(=O)c2ccc(OC)cc2)CC1,0.2,7.7,27*,45,0.71,-4,-5,0.1,i,13
c1ccc(Cn2nnc3c(N4CCc5ccccc54)ncnc32)cc1,0.7,-129,nt,4,0.72,nt,nt,nt,nt,4
CCC(C)(C)NC(=O)C(c1cccnc1)N(C(=O)c1csnn1)c1ccccc1 (centres undefined),0.7,2.3,-1.8,1,0.65,25,21,1.8,i,0
O=C(NC(=S)Nc1ccc(N2CCOCC2)c(Cl)c1)c1cncc(Br)c1,-0.3,2.2,nt,-9,0.66,nt,nt,nt,nt,-3
N#Cc1cn(CCOc2ccccc2F)c2ccccc12,0.1,4.3,nt,-1,0.66,nt,nt,nt,nt,-10
Cc1cc(OCC(=O)O/N=C(\N)c2ccccc2)cc(C)c1Cl,-0.8,1.5,nt,12,0.66,nt,nt,nt,nt,10
Cc1ccc(NC(=O)c2cc(Cl)nc3ccccc23)cc1,0.1,2.5,nt,-12,0.71,nt,nt,nt,nt,4
COc1ccc(Br)cc1S(=O)(=O)N(CC(=O)N1CCN(C)CC1)c1ccccc1,1.8,2.2,1.2,-6,0.64,-4,-2,-2.0,i,-11
COc1ccc(N2CCN(C3CCCN(S(=O)(=O)c4ccc(C)cc4C)C3)CC2)cc1 (centres undefined),1.6,4.1,32*,-3,0.68,-2,-16,2.8,i,-2
O=C(CSCc1cnn(-c2ccccc2)c1-n1cccc1)NCCN1CCOCC1,0.3,4.6,nt,9,0.69,nt,nt,nt,nt,-9
Cc1ccc(/C=N/n2c(-c3ccco3)n[nH]c2=S)s1,0.0,nt,-3.0,-4,nt,nt,nt,nt,i,-2
Cc1cc(=O)cc(C)n1-c1ccc(F)cc1F,0.1,-1.3,-1.3,-10,0.68,4,4,-4.6,i,-4
COc1cc(/C=C2\CC/C(=C\c3cc(OC)c(OC)c(OC)c3)C2=O)cc(OC)c1OC,0.1,nt,1.0,35,nt,1,-3,-1.9,i,8

# These rows are one share of the data; count on the stated rates, not on these rows.
